Mtb H37Rv: M. tuberculosis H37Rv growth inhibitors, H37Rv strain (AID 1626) | M. tuberculosis H37Rv growth inhibition; higher % means a stronger effect | inhibition, % at 10 µM, or IC50 in µM where a hit was titrated | actives 0.95% (n = 220,000);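 active = confirmed in a dose series; inconclusive = inhibition above 80% but not taken into the dose series; inactive = below 80% or under 30% at every dose of the series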;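 note: bacteria incubated seven days before Alamar blue readout; 0% = bacteria only wells and 100% = bacteria with antibiotic wells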
Mtb betalactam: beta-lactam sensitization of Mtb H37Rv; M. tuberculosis H37Rv growth with meropenem, percent inhibition; hits of this screen are not shown here; inhibition, % at 25 µM; actives 0.27% (n = 330,000);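 active = about 74% or more and at least 40 points above the plate without the antibiotic, then above 30% in a dose series; inconclusive = first-round hits that could not be retested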;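 note: growth measured after seven days incubation then overnight dye step; 0% = bacteria only wells and 100% = bacteria with antibiotic; twin plates without the antibiotic show which effects depend on it; some results filed as inactive read as strong as hits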
RecA intein inh: inhibitors of M. tuberculosis RecA intein splicing | AID 2221 | inhibition, %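 (about 9 µM by stock and volumes)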 | cell-free RecA intein splicing, fluorescence | P9WHJ3 | actives 0.75% (n = 290,000); in the data active = inhibition above about 30%; inconclusive = no clear call, values can overlap the other calls;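 note: 0% = vehicle wells and 100% = reference inhibitor control wells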
Target sequence (P9WHJ3 whole entry, looked up): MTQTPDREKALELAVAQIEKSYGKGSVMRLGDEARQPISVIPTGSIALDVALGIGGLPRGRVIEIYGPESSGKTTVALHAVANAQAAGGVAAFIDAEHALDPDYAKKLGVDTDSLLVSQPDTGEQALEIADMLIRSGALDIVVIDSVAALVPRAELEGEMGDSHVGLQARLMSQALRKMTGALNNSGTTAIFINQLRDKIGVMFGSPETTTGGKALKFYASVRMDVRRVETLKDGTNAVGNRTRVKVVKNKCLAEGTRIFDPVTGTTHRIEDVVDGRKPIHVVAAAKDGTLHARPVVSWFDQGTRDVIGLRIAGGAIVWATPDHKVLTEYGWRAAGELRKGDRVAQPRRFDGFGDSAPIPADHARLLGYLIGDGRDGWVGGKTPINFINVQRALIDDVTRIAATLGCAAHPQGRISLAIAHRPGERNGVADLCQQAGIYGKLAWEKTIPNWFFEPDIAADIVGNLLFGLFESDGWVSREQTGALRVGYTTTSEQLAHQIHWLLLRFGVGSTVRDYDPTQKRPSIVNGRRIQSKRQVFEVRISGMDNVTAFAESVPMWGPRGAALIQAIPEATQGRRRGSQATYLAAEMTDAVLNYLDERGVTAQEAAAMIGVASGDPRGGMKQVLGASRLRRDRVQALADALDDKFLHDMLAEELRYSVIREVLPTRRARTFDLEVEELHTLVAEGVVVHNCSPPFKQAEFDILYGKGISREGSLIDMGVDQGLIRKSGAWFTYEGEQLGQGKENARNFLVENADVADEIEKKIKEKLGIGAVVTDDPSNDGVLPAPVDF
YopH inh: inhibitors of Yersinia enterocolitica YopH tyrosine phosphatase. fluorescence Ex485/Em525. inhibition, %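 (about 10 µM by stock and volumes)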. actives 0.16% (n = 140,000). AID 898;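 active = inhibition of 50% or more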;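 note: controls were vehicle for no effect and minimum signal wells for full effect; inactives centre near -20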
Arbovirus inh: arbovirus infection inhibition; arbovirus infection cell-based antiviral screen; inhibition, % at 10 µM; actives 0.37% (n = 200,000);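 active = inhibition from about 30%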;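 note: bluetongue infection of BSR cells; cell survival read as ATP light after 72 h; 0% = infected wells without compound and 100% = uninfected wells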
* = called active by the depositor; ? = inconclusive; nt = no result given. An excerpt (hit frequency here may not be typical).

No.	SMILES	Mtb H37Rv	Mtb betalactam	RecA intein inh	YopH inh	Arbovirus inh
1	CCN(CC)c1ccc(C=NCCc2ccc(S(N)(=O)=O)cc2)cc1	-2.6%	0.6	0.9	nt	14.9
2	CCCCNC(=O)CNC(=O)c1nn(-c2ccc(OC)cc2)c(=O)c2ccccc12	nt	2.5	-1.2	nt	nt
3	CC1=C(C(=O)OCc2ccccc2)C(c2ccccc2Cl)NC(=O)N1C (stereo not drawn)	nt	74.0	7.8	nt	nt
4	CC(C)(C)c1nc2c(C#N)c(-c3ccc(Cl)cc3)ccn2n1	18.7%	27.5	9.1	-15.8	-13.9
5	CN(Cc1cccc2cnccc12)C(=O)c1cc(COc2ccc(F)cc2Cl)on1	nt	82.3	6.5	nt	nt
6	CCCN1C(=O)SC(CC(=O)Nc2ccccc2C)C1=O (stereo not drawn)	-0.6%	2.5	-0.8	-29.8	-3.2
7	O=C(CSCc1ccccc1Cl)N/N=C/c1ccco1	4.5%	-0.3	1.5	nt	-2.2
8	O=C(CN1C(=O)c2cccc([N+](=O)[O-])c2C1=O)NCc1ccccc1	nt	-3.8	-3.1	nt	nt
9	CCOC(=O)c1c(NC(=O)CSC2=NN3CCCC(=O)N=C3S2)sc2c1CCCCC2	nt	0.0	1.3	-26.5	0.3
10	COc1ccc(-n2cc(CNC(C)c3ccncn3)c(-c3cccc(F)c3)n2)cc1 (stereo not drawn)	2.0%	33.6	2.3	nt	2.9
11	COC(=O)C1=C(C)NC(=O)NC1c1ccc2c(c1)OCO2 (stereo not drawn)	nt	1.5	1.0	nt	nt
12	NS(=O)(=O)c1ccc(NC(NC(=O)c2cccnc2)C(Cl)(Cl)Cl)cc1 (stereo not drawn)	nt	6.4	-0.1	nt	nt
13	O=C(O)Cc1ccc(Oc2ncc(C(F)(F)F)cc2Cl)cc1	4.2%	-2.1	-4.4	nt	2.3
14	Cc1ccc(NC(=O)CN(C)C(=O)Cn2ccsc2=N)cc1	-4.8%	-8.3	1.2	nt	1.2
15	O=C(CC1CCCCC1)NCc1ccco1	-15.6%	-7.8	-2.0	nt	3.4
16	CC(c1n[nH]c(=S)n1-c1ccc(F)cc1)N1CCCCC1 (stereo not drawn)	6.6%	7.5	-0.6	nt	-0.9
17	Cc1nn(C2CCS(=O)(=O)C2)c(C)c1C=O (stereo not drawn)	-4.9%	-3.9	0.3	nt	0.6
18	CCNS(=O)(=O)c1ccc(CCC(=O)N2CCN(c3cc(Cl)ccc3C)CC2)cc1	nt	-1.0	0.5	nt	nt
19	Cc1nc(C)n(CCNS(=O)(=O)c2ccc(C)c(C)c2)n1	nt	3.2	-3.0	nt	nt
20	Cc1cc(C)c2cc(CN(CCO)Cc3nnnn3Cc3ccccc3)c(=O)[nH]c2c1	-1.1%	-16.1	-0.8	-32.9	3.2

Profiles, quoted from the list:
O=C(CC1CCCCC1)NCc1ccco1 as listed: Mtb H37Rv: -15.6%; Mtb betalactam: -7.8; RecA intein inh: -2.0; YopH inh: nt; Arbovirus inh: 3.4
COC(=O)C1=C(C)NC(=O)NC1c1ccc2c(c1)OCO2 (stereo not drawn) as listed: Mtb H37Rv: nt; Mtb betalactam: 1.5; RecA intein inh: 1.0; YopH inh: nt; Arbovirus inh: nt

The list continues.
No.	SMILES	Mtb H37Rv	Mtb betalactam	RecA intein inh	YopH inh	Arbovirus inh
21	Cc1nn(CCOc2ccc(Br)cc2)c(C)c1[N+](=O)[O-]	3.9%	-12.5	4.0	nt	2.7
22	COC(=O)c1ccc(NC(=O)c2c(Br)cnn2C)cc1	nt	7.2	3.2	nt	nt
23	OCCC1CN(Cc2cc3c(cc2Cl)OCO3)CCN1C1CCCC1 (stereo not drawn)	3.9%	-2.5	2.0	nt	-9.4
24	CN1/C(=C\C=C(/C#N)C(=O)Nc2ccccc2F)C(C)(C)c2ccccc21	8.3%	5.5	-3.1	-40.1	-0.4
25	CC(C)c1ccccc1NC(=S)N1CCN(Cc2ccc3c(c2)OCO3)CC1	5.0%	-4.9	-1.8	nt	0.3
26	COCCN(C(=O)CCC(=O)Nc1ccccn1)C(C(=O)NCCC(C)C)c1ccc(OC)cc1 (stereo not drawn)	-2.0%	-4.1	-3.5	-36.3	10.4
27	O=C(Nc1ccc(OCC(=O)N2CCOCC2)cc1)c1cc(F)c(F)cc1Cl	nt	-0.4	0.1	nt	nt
28	O=C1Cc2ccccc2C(=O)N1OCc1ccc(Cl)cc1Cl	1.1%	-1.7	12.2	nt	-1.1
29	CCOC(=O)N1CCN(c2cc(N)c([N+](=O)[O-])cc2F)CC1	-0.3%	-1.9	-0.7	2.0	-2.1
30	O=C(NCc1cccnc1)c1ccc(COc2ccc(Cl)cc2Cl)o1	7.3%	3.1	3.2	nt	-1.3
31	Cc1nn(C)c(C)c1P(=S)(c1c(C)nn(C)c1C)N(C)C	-6.8%	-5.2	5.9	-22.0	1.8
32	O=C(CSc1nc(-c2ccco2)cc(C(F)(F)F)n1)NCc1cccs1	0.1%	-5.3	1.8	-20.6	-5.3
33	Cc1ccccc1NC(=O)c1ccc(S(=O)(=O)C(F)F)cc1	1.0%	0.4	-0.3	-28.0	-1.8
34	CC1CCCCN1C(=O)NC12CC3CC(CC(C3)C1)C2 (stereo not drawn)	2.4%	13.0	nt	-51.7	8.8
35	CCC(C)(C)n1nnnc1CN1CCN(c2nc3cc(OC)ccc3cc2C#N)CC1	-2.1%	-3.5	0.1	-26.8	6.1
36	COC(=O)C1C(c2ccc(OC)cc2)C(C(=O)OC)S(=O)(=O)C(CCN2CCCCC2)S1(=O)=O (stereo not drawn)	2.5%	-1.4	-1.2	nt	13.4
37	COc1ccc(Nc2c3c(nc4c(-c5ccccc5)c(C)nn24)CCC3)cc1	13.4%	91.7	4.6	-22.4	5.5
38	Cc1ccc(C(=O)NN2C(=O)/C(=C/c3cn(C)c4ccccc34)SC2=S)cc1	11.3%	3.4	nt	-2.7	3.7
39	CCCn1c(=O)c2c(nc3n2CCN3Cc2ccco2)n(C)c1=O	-0.6%	-9.6	6.1	nt	3.2
40	COc1cc(NC(=O)CCc2nnc3ccc(N4CCN(c5cccc(OC)c5)CC4)nn23)cc(OC)c1	nt	-3.2	-0.4	nt	nt
41	COc1ccc(CC(=O)Nc2nc3n(n2)C(c2ccccc2)CC(=O)N3)cc1OC (stereo not drawn)	-4.8%	1.3	-0.5	-40.8	-3.4
42	C=CCc1cccc(CNc2nc3ccccc3n2CCC)c1O	1.5%	-5.0	15.9	-2.3	14.7
43	Cc1nnc(SCc2cc(=O)[nH]c(N3CCN(C)CC3)n2)s1	13.9%	1.8	-7.2	-22.6	4.9
44	Cc1cc(OC(=O)c2ccccc2Br)cc(=O)n1C	-6.4%	1.5	8.0	-45.3	7.8
45	O=C1COc2ccc3ccccc3c2CN1	-5.7%	2.3	0.0	-16.9	-6.8
46	O=C1NC(c2ccccc2)=N/C1=C/c1ccco1	2.9%	-1.0	7.6	-24.2	-10.2
47	COC(=O)c1cc(-c2ccccc2)nc2nc(SC)[nH]c(=O)c12	nt	-3.5	-0.4	nt	nt
48	CCN(CC)C(=O)CCSc1nnc(-c2ccco2)o1	-5.4%	12.9	-1.5	nt	-5.7
49	S=C(Nc1ccccn1)NC1CCCC1	-5.9%	-2.1	-4.1	nt	0.4
50	CCCc1cc(=O)oc2c(C)c(OC(C)C(=O)NCCN3CCOCC3)ccc12 (stereo not drawn)	nt	3.8	-1.7	nt	nt
51	CCOC(=O)C1=C(C)NC2=C(C(=O)C(C(=O)OC)C(C)C2)C1c1ccc(OC)c(O)c1 (stereo not drawn)	1.6%	-18.5	-1.0	3.9	1.6
52	CC(=O)N(/N=C1\Sc2ccccc2C1=O)c1cccc(C)c1	6.8%	34.3	7.6	41.0	-4.9
53	CC(=O)Nc1ccc(S(=O)(=O)NC2(C(F)(F)F)C(=O)Nc3c2c(=O)[nH]c(=O)n3C)cc1 (stereo not drawn)	-6.1%	-6.0	0.0	-1.3	4.7
54	CC(NCC(=O)NC(=O)NC1CCCC1)c1ccc(Cl)cc1Cl (stereo not drawn)	nt	-8.1	3.2	nt	nt
55	O=C(C1CC(=O)N(C2CCCC2)C1)N1CCN(c2ccccc2F)CC1 (stereo not drawn)	-2.4%	-1.7	1.0	-44.4	-1.0
56	CC(=O)Nc1ccc(NC(=O)CCNS(=O)(=O)c2cccc3nsnc23)cc1	2.0%	-1.9	nt	nt	6.4
57	O=C(O)C1C2C=CC(O2)C1C(=O)NCCc1cccc(Cl)c1 (stereo not drawn)	-12.6%	-3.4	2.4	nt	2.1
58	O=C(Cc1ncc(C(F)(F)F)cc1Cl)NNc1cccc(F)n1	nt	0.5	-1.7	nt	nt
59	COCCCNC(=O)CCCn1c(=O)c2ccccc2n(Cc2cccc([N+](=O)[O-])c2)c1=O	-3.2%	-8.0	0.5	nt	4.1
60	Cc1cc(C)c(Nc2ncnc(N)n2)c(C)c1	-14.4%	-9.5	-0.2	nt	nt
61	COc1ccc(-c2ccnc(-c3ccc(O)cc3)n2)cc1	?	2.7	-0.2	nt	-13.0
62	O=C(CCc1nnc(C2CCCCC2)o1)NCCCOc1cccnc1	5.4%	5.1	-0.7	nt	2.1
63	CCc1cc(/C(Cc2ccccn2)=N\Nc2ccccc2)c(O)cc1O	-4.9%	86.6	17.9	nt	-26.9
64	O=C(c1ccccc1-c1nc(-c2ccc(F)cc2)no1)N1CCCC1	-0.9%	-0.2	1.1	-0.4	3.2
65	O=C(N/N=C/c1cccc([N+](=O)[O-])c1)c1cccc(Br)c1	0.8%	1.2	-0.4	nt	-0.6
66	O=C(Nc1ccccc1)c1c(O)[nH]c(=O)[nH]c1=O	5.3%	25.2	-1.0	nt	nt
67	COCCN(C(=O)c1ccccc1F)c1nnc(-c2ccc(OC)cc2)s1	nt	9.4	6.9	nt	nt
68	C=CCN1N=C(/C=C/c2ccc(OC)cc2)CCC1=O	nt	3.8	-2.6	nt	nt
69	O=S1(=O)N[C@H](c2ccccc2)C[C@H](c2ccc(C(F)(F)F)cc2)O1	nt	6.8	1.4	nt	nt
70	CCOc1cc(/C=C2\CN(CC)C/C(=C\c3ccc(O)c(OCC)c3)C2=O)ccc1O	nt	90.5	1.3	nt	nt

Other results follow.
No.	SMILES	Mtb H37Rv	Mtb betalactam	RecA intein inh	YopH inh	Arbovirus inh
71	CC(C)NC(=O)CSCc1c(Cl)cccc1Cl	4.3%	-5.0	-0.3	-17.3	4.0
72	CC/C=C/C(=O)N1CC2(CC(c3cccc(NC(=O)c4ccccc4)c3)=NO2)C[C@@H]1C(N)=O (stereo partly drawn)	-14.9%	-2.5	5.1	-23.9	-0.6
73	O=C(O)C1=C[C@H](c2cccs2)C[C@H](OCCCCO)O1	-8.3%	-2.6	1.9	nt	nt
74	CCc1ccc(OCc2cnc(Cl)s2)cc1	10.2%	-0.1	3.3	nt	-3.0
75	O=C(N/N=C/c1ccccc1O)/C(=C/c1ccccc1)CCO	-15.7%	-6.8	-2.7	-23.7	-28.8
76	O=C(NNc1nc2ccccc2s1)c1ccccc1F	27.8%	98.7	-6.8	-16.1	-18.2
77	Cc1ccc2nsnc2c1NC(=O)c1cccc([N+](=O)[O-])c1	-7.4%	-8.7	-2.6	-39.9	-20.6
78	COc1nc(SC)nc(Cl)c1Cc1ccc(OC(C)C)cc1	1.4%	0.4	2.9	-27.7	11.7
79	O=C(CN1C(=O)c2ccccc2S1(=O)=O)N1CCc2ccccc21	1.1%	-3.4	-2.1	27.2	-3.1
80	Cc1cccc2cc(CN(CCCO)C(=O)Nc3cccc(Cl)c3)c(=O)[nH]c12	2.7%	7.2	0.8	-49.8	-4.1
81	O=C1NC(=O)N(CC2CCCO2)C(=O)/C1=C/c1cccs1 (stereo not drawn)	4.2%	-8.8	1.5	nt	nt
82	CCOc1ccc(OCC(=O)NCc2n[nH]c(=O)c3ccccc23)cc1	nt	-13.5	-0.4	nt	nt
83	CCCN(C(=O)C1CCN(S(=O)(=O)c2ccc(OC)c(OC)c2)CC1)C1CCS(=O)(=O)C1 (stereo not drawn)	nt	3.9	-3.0	nt	nt
84	O=C(CN1c2cccc3cccc(c23)S1(=O)=O)Nc1ccccc1F	nt	3.9	-0.3	nt	nt
85	Cc1cc(Cl)c(S(=O)(=O)NCc2ccccc2)cc1OCC(N)=O	-7.0%	-19.5	-1.1	-6.4	-3.0
86	CN=c1sc(C(=O)Nc2ccccc2)c(C)n1C	-3.2%	-4.9	-0.8	nt	-0.5
87	COc1ccc(S(=O)(=O)N2CCCCCC2)cc1C(=O)N(C)CC(=O)Nc1ccc(F)cc1	nt	-2.0	-0.2	nt	nt
88	CN(CCOc1ccccc1)CC(=O)Nc1ccc(Br)cc1F	nt	6.2	0.2	nt	nt
89	Cc1ccc(NC(=O)CSC2=NN3CCCC(=O)N=C3S2)cc1Cl	nt	71.5	0.8	nt	nt
90	CCCCCCCC(=O)N1CCN(c2cc3c(cc2F)c(=O)c(C(=O)O)cn3CC)CC1	nt	47.3	-2.9	nt	nt
91	C/C(=N/NC(=O)CNC(=O)c1cccs1)c1ccc(Cl)cc1	nt	2.2	-3.2	nt	nt
